Screens as filed in PubChem.
RecA intein inh = inhibitors of M. tuberculosis RecA intein splicing. cell-free RecA intein splicing, fluorescence. 0.75% of 290,000 active. inhibition, %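 (about 9 µM by stock and volumes)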. P9WHJ3. AID 2221; in the data active = inhibition above about 30%; inconclusive = no clear call, values can overlap the other calls;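 also: 0% = vehicle wells and 100% = reference inhibitor control wells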
Target sequence (P9WHJ3 whole entry, looked up): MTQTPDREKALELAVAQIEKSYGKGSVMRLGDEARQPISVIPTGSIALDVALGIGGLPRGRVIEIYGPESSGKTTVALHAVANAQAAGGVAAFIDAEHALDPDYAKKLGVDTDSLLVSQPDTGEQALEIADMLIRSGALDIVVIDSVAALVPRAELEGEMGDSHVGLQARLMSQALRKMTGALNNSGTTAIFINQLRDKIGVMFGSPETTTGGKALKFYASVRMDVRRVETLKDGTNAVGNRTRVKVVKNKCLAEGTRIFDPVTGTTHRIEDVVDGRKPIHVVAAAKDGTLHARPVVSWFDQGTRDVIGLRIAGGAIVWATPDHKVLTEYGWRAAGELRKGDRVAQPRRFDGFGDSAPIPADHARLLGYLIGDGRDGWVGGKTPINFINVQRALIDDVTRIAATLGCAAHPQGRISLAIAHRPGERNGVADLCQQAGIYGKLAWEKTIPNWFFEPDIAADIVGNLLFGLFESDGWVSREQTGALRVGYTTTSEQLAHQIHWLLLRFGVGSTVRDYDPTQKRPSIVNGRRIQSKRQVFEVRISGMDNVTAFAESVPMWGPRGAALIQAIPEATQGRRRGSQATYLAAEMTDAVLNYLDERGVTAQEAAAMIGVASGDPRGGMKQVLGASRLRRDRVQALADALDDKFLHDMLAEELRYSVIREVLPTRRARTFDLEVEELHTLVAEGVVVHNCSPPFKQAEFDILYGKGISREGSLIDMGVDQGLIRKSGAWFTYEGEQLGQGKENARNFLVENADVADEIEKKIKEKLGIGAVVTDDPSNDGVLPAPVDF
Mtb bLac sens = beta-lactam sensitization of Mtb H37Rv; AID 434955; 0.27% of 330,000 active; inhibition, % at 25 µM; M. tuberculosis H37Rv growth with meropenem, percent inhibition; hits of this screen are not shown here;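 active = about 74% or more and at least 40 points above the plate without the antibiotic, then above 30% in a dose series; inconclusive = first-round hits that could not be retested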;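 also: growth measured after seven days incubation then overnight dye step; 0% = bacteria only wells and 100% = bacteria with antibiotic; twin plates without the antibiotic show which effects depend on it; some results filed as inactive read as strong as hits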
Arbovirus anti = antivirals against arbovirus infection. arbovirus infection cell-based antiviral screen. inhibition, % at 10 µM. 0.37% of 200,000 active. AID 1251;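 active = inhibition from about 30%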;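 also: bluetongue infection of BSR cells; cell survival read as ATP light after 72 h; 0% = infected wells without compound and 100% = uninfected wells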
Mtb H37Rv = M. tuberculosis H37Rv growth inhibitors, H37Rv strain (AID 1626). M. tuberculosis H37Rv growth inhibition; higher % means a stronger effect. inhibition, % at 10 µM, or IC50 in µM where a hit was titrated. 0.95% of 220,000 active;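 active = confirmed in a dose series; inconclusive = inhibition above 80% but not taken into the dose series; inactive = below 80% or under 30% at every dose of the series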;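 also: bacteria incubated seven days before Alamar blue readout; 0% = bacteria only wells and 100% = bacteria with antibiotic wells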
YopH inh = blocks Yersinia enterocolitica YopH tyrosine phosphatase. fluorescence Ex485/Em525. inhibition, %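 (about 10 µM by stock and volumes)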. 0.16% of 140,000 active. AID 898;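 active = inhibition of 50% or more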;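 also: controls were vehicle for no effect and minimum signal wells for full effect; inactives centre near -20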
Arbovirus anti repeat = second read-out of Arbovirus anti, no call of its own (marks repeat the call); inhibition, %; measured here: 10K subset replicate screen; many hits read low in the repeat;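 first of two repeat runs on a subset; 0% = infected and 100% = uninfected wells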
Active calls of the source: *; i = inactive; ? = inconclusive; · = no result given. The list is partial, so the mix of outcomes need not match the whole.

SMILES	RecA intein inh	Mtb bLac sens	Arbovirus anti	Mtb H37Rv	YopH inh	others
COC(=O)C(C(=O)OC)c1ncc(C(F)(F)F)cc1Cl	0.2	-2	-1	6%	·
COC(=O)C(C)Oc1ccc(-c2nccc(-c3ccc(F)cc3)n2)cc1 (configuration not stated)	10	100	·	·	·
CC(=O)c1ccc(S(=O)(=O)Nc2ccc(-c3ccc4nnc(C)n4n3)cc2)cc1	-3.6	7	5	0%	·
Clc1ccc(-c2cnc3n2CCC3)cc1	2.4	84	6	-5%	-8
Cc1ccc(C)c(NC(=S)NC23CN4CN(CN(C4)C2)C3)c1	1.8	3	9	-4%	·
CC(C)(C)n1c(O)c2ccc(C(=O)N=NC(=O)c3ccccc3)cc2c1O	-0.4	-2	·	·	·
COC(=O)C1CCN(S(=O)(=O)CCNC(=O)c2ccc3c(c2)OCO3)CC1	-1.4	-3	·	·	·
O=C(Nc1cc(C(=O)N2CCCC2)ccc1N1CCCC1)c1ccccc1	0.3	8	6	-7%	-8
Cc1cc(C)c2c(N)c3ccccc3nc2n1	i	5	-28	5%	-26
CCC(C)Nc1nc2c(c(=O)n(C)c(=O)n2C)n1Cc1ccc(F)cc1 (configuration not stated)	1.3	-3	-3	-3%	10
COc1cc(C(=O)NCC(=O)OCCN2C(=O)c3ccccc3C2=O)cc(OC)c1OC	-1.6	-2	3	0%	·
Cc1ccc(SC[C@H](CC(C)C)N2CCN(C)CCC2=O)cc1	-0.8	·	·	-1%	·
CCOc1ccc(NC(=O)C2CCN(c3nnnn3-c3ccccc3)CC2)cc1	-2.3	-9	-5	-11%	-11
CCSC1=C(C#N)C(c2cccc(O)c2)CC(=O)N1 (configuration not stated)	-0.7	-4	11	-2%	-20	Arbovirus anti repeat=-3
C=CCn1c(O)c(/C=N/N2CCCCC2c2cccnc2)c(=O)[nH]c1=S (configuration not stated)	-2.5	3	0	·	-12
CCCN1CCC(N(C)CCc2ccc(OC)c(OC)c2)CC1	-1.1	3	-5	2%	-33	Arbovirus anti repeat=4
CCC(C)[C@H](NC(=O)N1CCn2c1nc1ccccc12)C(=O)NCCc1ccccc1 (some centres not stated)	1.3	9	·	·	·
COc1cc(C(=O)Nc2ccc(S(=O)(=O)N3CCCCC3C)cc2)cc(OC)c1OC (configuration not stated)	6.0	1	-8	1%	-20	Arbovirus anti repeat=-21
Cc1nnc(SCC(=O)Nc2ccc3c(c2)COC3=O)n1-c1ccccc1	5.7	8	5	1%	-21	Arbovirus anti repeat=6
O=C1CCCN1CC(O)CS(=O)(=O)Cc1ccc(Cl)cc1Cl (configuration not stated)	-1.3	-4	·	·	·
Cc1ccc(C(=O)NCCc2nnc3ccc(NCc4ccc5c(c4)OCO5)nn23)cc1	2.4	2	·	·	·
CCCn1nc(C(=O)NNC(=O)Cc2ccc(S(=O)(=O)N3CCOCC3)s2)c2ccccc2c1=O	0.3	-9	·	·	·
C=CCn1c(SC(C)C(=O)Nc2ccc(F)c(F)c2F)nnc1C1CC1 (configuration not stated)	-2.3	-8	·	·	·
O=C(NC(Cc1ccccc1)C(=O)O)c1cccnc1Cl (configuration not stated)	-1.2	-3	·	·	·
COc1nc(-c2ccccc2)ncc1S(=O)(=O)c1ccccc1	-4.2	5	4	4%	·
O=C1C2C3C=CC(C4CC34)C2C(=O)N1/N=C/c1ccc(-c2ccc([N+](=O)[O-])cc2)o1 (configuration not stated)	-0.8	45	-4	?	·
Cn1cc(CCC(=O)N2CCCC(C(=O)c3cccc4ccccc34)C2)cn1 (configuration not stated)	-0.1	-9	10	8%	·
CC(=O)Nc1cccc(N/C(N)=N/c2nc(C)cc(C)n2)c1	2.2	8	-3	-4%	·
Clc1ccccc1CN1CCN(c2cccc3[nH]ccc23)CC1	-1.4	-3	·	-7%	·
Cc1cc(C)c[n+](-c2nc3ccccc3nc2[N-]S(=O)(=O)c2cccs2)c1	-0.6	-1	-3	0%	-32
CCC(Oc1ccc(C)cc1)C(=O)Nc1ccccc1C(=O)N1CCOCC1 (configuration not stated)	-0.8	-6	·	·	·
Cc1occc1C(=O)Nc1ccccc1C#N	-5.2	-4	·	·	·
O=C(COC(=O)/C=C/c1cccc(F)c1)Nc1ncccn1	-3.3	2	·	-9%	·
CC(=O)Nc1ccc(OCC(=O)NCCc2ccccc2)cc1	-0.4	-3	5	-2%	·
CSc1cccc(NC(=O)/C=C/c2ccccc2)c1	3.5	58	7	66%	-38
COc1ccc(CC(=O)OCC(=O)Nc2cccnc2Cl)cc1OC	1.9	0	3	-3%	·
NS(=O)(=O)c1cccc(NC(=O)CSc2nc3ccccc3n2-c2ccccc2)c1	7.8	0	10	0%	·
CCc1ccc(NC(=O)C2=CC(c3ccc(OC)cc3)=NS(=O)(=O)N2C)cc1	3.9	1	·	·	·
CCOC(=O)Cc1c(C)nc2c(-c3ccccc3)c(-c3ccccc3)[nH]n2c1=O	1.5	53	-28	-2%	-44
CN(C)S(=O)(=O)Oc1cccc(C(=O)Nc2ccc(Cl)cc2)c1	5.9	-7	2	-1%	-30
COc1ccc(C(=O)NNC(=O)c2ccccc2[N+](=O)[O-])cc1[N+](=O)[O-]	10	-14	7	-3%	·
COc1cccc(NC(=O)CN2CCN(c3nc(-c4cccc(OC)c4)cs3)CC2)c1	0.6	2	-3	1%	-26
Cc1cc(-c2n[nH]c(=S)n2/N=C/c2ccc(Cl)c([N+](=O)[O-])c2)n[nH]1	2.1	0	2	-7%	-33
NC(=O)CC(NC(=O)c1ccccc1)c1ccc(NCc2ccc(F)c(F)c2)c([N+](=O)[O-])c1 (configuration not stated)	-1.5	0	·	·	·
COc1ccc(CCN(C)C(=O)c2cc(S(=O)(=O)N3CCCCCC3)ccc2OC)cc1OC	-2.6	-1	·	·	·
CCOC(=O)CN1C(=O)N[C@@H](c2cccc(C(F)(F)F)c2)[C@@H](C(=O)OC)[C@H]1C	-1.3	-7	·	-7%	·
CN(C)c1ccc(C2NCC(CCl)O2)cc1 (configuration not stated)	·	-3	-2	-1%	-30
CCOC(=O)C1CCCN(C(=O)c2cc(Cl)ccc2Cl)C1 (configuration not stated)	-0.9	2	8	-2%	-6
CCCCCCNC(=O)CCNS(=O)(=O)c1ccc(C)cc1	-0.8	9	4	-3%	·
Nn1c(SCC(=O)NCc2ccccc2)nncc1=O	-17	-8	0	-3%	-4

Pulled by structure from the entries so far:
SMILES	RecA intein inh	Mtb bLac sens	Arbovirus anti	Mtb H37Rv	YopH inh	others
COc1ccc(C(=O)NNC(=O)c2ccccc2[N+](=O)[O-])cc1[N+](=O)[O-]	10	-14	7	-3%	·
CN(C)S(=O)(=O)Oc1cccc(C(=O)Nc2ccc(Cl)cc2)c1	5.9	-7	2	-1%	-30

3 compounds from above, arranged by molecular weight, smallest number first:
SMILES	RecA intein inh	Mtb bLac sens	Arbovirus anti	Mtb H37Rv	YopH inh	others
Nn1c(SCC(=O)NCc2ccccc2)nncc1=O	-17	-8	0	-3%	-4
COc1ccc(C(=O)NNC(=O)c2ccccc2[N+](=O)[O-])cc1[N+](=O)[O-]	10	-14	7	-3%	·
COc1cccc(NC(=O)CN2CCN(c3nc(-c4cccc(OC)c4)cs3)CC2)c1	0.6	2	-3	1%	-26

New compounds follow:
SMILES	RecA intein inh	Mtb bLac sens	Arbovirus anti	Mtb H37Rv	YopH inh	others
Brc1ccc(OCc2cn3ccccc3n2)cc1	-3.0	4	0	9%	·
COc1ccc(S(=O)(=O)Nc2ccccc2C(=O)NCc2cccnc2)cc1	-0.5	-2	·	·	·
O=[N+]([O-])c1cc2c(cc1/C=N/NS(=O)(=O)c1ccc(Br)cc1)OCO2	-1.6	2	-5	-8%	·
Cc1cccc(C)c1NC(=O)N1CCN(c2nc3ccccc3s2)CC1	3.2	2	-7	4%	-6
CCOC(=O)C1=NN(c2ccccc2)C(=O)C1	-12	-2	·	·	·
Cn1c(SCC(=O)NC(C)(C)C)nnc1-c1cccc(NC(=O)c2ccccc2F)c1	2.7	?	2	2%	-17
CN(CCOc1ccc(-c2ccn(S(=O)(=O)c3cccc4ccccc34)n2)cc1)c1ccccn1	-1.1	2	0	-5%	-41
Cc1ccc(NC(=O)CSc2nc(NS(=O)(=O)c3ccccc3)cc(=O)[nH]2)cc1	·	-1	-2	-17%	-14
Clc1ccc(-c2nnn(Cc3nc4ccccc4s3)n2)cc1	1.9	-1	11	-17%	-32	Arbovirus anti repeat=2
CCc1ccc(NC(=O)CN2C(=O)C(=O)N(Cc3ccccc3)C2=O)cc1	0.1	82	1	88%	·

Overlap with the part before: three compounds; new compounds follow.
SMILES	RecA intein inh	Mtb bLac sens	Arbovirus anti	Mtb H37Rv	YopH inh	others
Cc1ccc(NC(=O)CSc2nc(NS(=O)(=O)c3ccccc3)cc(=O)[nH]2)cc1	·	-1	-2	-17%	-14
Clc1ccc(-c2nnn(Cc3nc4ccccc4s3)n2)cc1	1.9	-1	11	-17%	-32	Arbovirus anti repeat=2
CCc1ccc(NC(=O)CN2C(=O)C(=O)N(Cc3ccccc3)C2=O)cc1	0.1	82	1	88%	·
CC(C)N(C(=S)NC1CC2CCC1C2)c1ccccc1 (configuration not stated)	6.9	-1	-2	1%	·
COC(=O)Cc1csc(Nc2ccccc2Cl)n1	-0.8	3	5	1%	-3
COC(=O)c1ccccc1S(=O)(=O)NNC(=O)Nc1ccccc1	0.3	13	·	·	·
CC(C)C(=O)OCC(=O)Nc1ccc(N=Nc2ccccc2)cc1	3.9	-3	7	3%	-23
O=C(NCCCN1CCCC1)c1ccc2c(c1)N(Cc1ccccc1F)C(=O)c1ccccc1S2(=O)=O	2.7	-5	·	·	·
O=C(Nc1cc(Cl)cc(Cl)c1)C(NCCO)c1ccccc1 (configuration not stated)	-1.2	·	4	-9%	15
COC(=O)C(N)Cc1ccc(OC)c([N+](=O)[O-])c1 (configuration not stated)	2.7	-5	·	-1%	·
CC(C)(C)c1cc2nc(N)nc(N)n2n1	-9.1	10	·	-7%	·
c1ccc2sc(SN3CCOCC3)nc2c1	3.5	7	-4	-3%	-14
CC(=O)c1sc(NC(=O)C2=NN(c3ccccc3)C(=O)CC2)nc1C	-1.6	-9	-3	-3%	·
Cc1cc(NC(=O)CSCC(=O)OC(C)C(=O)c2cc(C)c(C)cc2C)no1 (configuration not stated)	3.1	-3	·	·	·
CCOC(=O)C1(Cc2ccc(OC)cc2)CCN(C(=O)CCc2cccnc2)CC1	4.2	-1	0	-4%	·
Cc1nn(Cc2ccccc2)c(C)c1NC(=O)CSc1nc2sc3c(c2c(=O)n1C)CCC3	2.1	0	·	-1%	-30
CC(C)c1nc(-c2ccc([N+](=O)[O-])cc2)cs1	4.7	1	-4	-9%	-24
Nc1cc(=O)[nH]c(=O)n1CC1CC1	-0.6	-2	6	-9%	-2
COC(=O)c1sc2nc(C)cc(C)c2c1N	-14	-3	-4	5%	·
CCN(C(=O)COC(=O)CCc1ccccc1)c1ccccc1	0.8	3	·	·	·
Cn1c(=O)n(C)c2cc([N+](=O)[O-])c(N3CCN(C(=O)c4cccc(F)c4)CC3)cc21	1.0	4	-2	-4%	·
CCc1nnc2cccc(Cl)n12	1.9	-3	2	9%	·
Cn1c(SCc2cccnc2)nnc1-c1c[nH]c2ccccc12	-5.4	3	0	-1%	·

Brought forward from above: 3 compounds, then new ones.
SMILES	RecA intein inh	Mtb bLac sens	Arbovirus anti	Mtb H37Rv	YopH inh	others
Cn1c(=O)n(C)c2cc([N+](=O)[O-])c(N3CCN(C(=O)c4cccc(F)c4)CC3)cc21	1.0	4	-2	-4%	·
CCc1nnc2cccc(Cl)n12	1.9	-3	2	9%	·
Cn1c(SCc2cccnc2)nnc1-c1c[nH]c2ccccc12	-5.4	3	0	-1%	·
Cc1ccc(C(=O)OCCn2cc(C#N)c(=O)[nH]c2=O)cc1	-1.5	2	-2	0%	·
COc1ccccc1NC(=O)C(=O)NCc1ccccc1Cl	1.0	3	-6	5%	-28
N#Cc1c(NC(=O)C2CC2)sc2c1CCCCC2	-1.1	9	5	9%	-30
CC(C)c1ccc(NC(=O)c2n[nH]c(=O)c3ccccc23)cc1	·	·	2	5%	·
CC(=O)N1CCN=C1SCc1ccccc1	1.1	-9	8	0%	-24
CCOCCCNC(=O)CN1C(=O)C(CC)Oc2ccccc21 (configuration not stated)	-0.4	14	-10	10%	-31
COc1ccc2nc(Nc3nc(CSc4nc5ccccc5s4)cc(=O)[nH]3)nc(C)c2c1	-0.1	-3	·	12%	·
Cc1ccc(N(CC(=O)N2CCCCCC2)S(=O)(=O)c2ccccc2)cc1	0.3	-1	·	·	·
CCN(CC)S(=O)(=O)c1cc(C(=O)Nc2ccccn2)ccc1C	2.8	-12	9	-3%	-22
Cc1ccc2cccc(N)c2n1	3.3	-3	0	6%	·
Cc1cccc(NC2SC(=O)N(CC(=O)O)C2=O)c1 (configuration not stated)	-0.8	-8	3	-3%	-12
